Compound activity as filed in PubChem.
E coli growth: inhibitors of Escherichia coli growth | OD600, 23 h; hits give low values | OD600 absorbance (no concentration beside the values) | 330,000 compounds, 0.21% hits | AID 1053175;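 active means OD600 absorbance below the run mean of sample wells minus 3.6 SD, in any replicate, cut at about 0.56 in these data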;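 further: stock transfer was 300 nL into about 60 µL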
Ecoli rRNA inh: inhibits bacterial ribosomal RNA function over humanized ribosomes; 350,000 compounds, 1.6% hits; GFP signal change (wild-type ribosome), % (no concentration beside the values); E. coli WT GFP vs humanized-ribosome RFP mutants, fluorescence, 24 h; hits give low values; DMSO median 0, no signal -100;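 active means significant combined selectivity score with lowered wild-type GFP, culture density cut under 30%, mutant RFP and density less affected; inactive means any of these conditions unmet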; further: one replicate is shown; some compounds called inactive have numbers as strong as hits
UCH37 DUB inh: blocks the human deubiquitinase UCH37. Q9Y5K5. purified proteasome/UCH37, Ub-AMC cleavage fluorescence. inhibition, % (concentration not given with the values). 330,000 compounds, 0.33% hits;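 active means mean of two replicates above 20%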;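 further: 0% = compound-free wells with enzyme and 100% = wells lacking proteasome; stock transfer was 100 nL into about 20 µL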
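Test system – human UCH37 enzyme supplied as purified proteasome complex · Incubation – 30 min preincubation with enzyme, 25 min cleavage at room temperature · Detection – AMC fluorescence from Ub-AMC cleavage, excitation 355 nm, emission 460 nm · Benchmarks – no-proteasome wells (full inhibition) and compound-free wells (no inhibition)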
HNF4A DNA FP: change in binding of human HNF4 alpha to DNA. P41235. HNF4a-FITC DNA binding, fluorescence polarization, 1 h. activity change, % at 10 µM. 360,000 compounds, 0.3% hits. AID 1224865; in the data active means activity change above about 30%, passing the limit was not always enough;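 further: controls were the assay level and a saturating level of protein; the project sought stronger binding though the title names inhibitors; some compounds called inactive have numbers as strong as hits; positive values seem to mean higher polarization but the record does not say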
Target sequence (P41235 whole entry, looked up): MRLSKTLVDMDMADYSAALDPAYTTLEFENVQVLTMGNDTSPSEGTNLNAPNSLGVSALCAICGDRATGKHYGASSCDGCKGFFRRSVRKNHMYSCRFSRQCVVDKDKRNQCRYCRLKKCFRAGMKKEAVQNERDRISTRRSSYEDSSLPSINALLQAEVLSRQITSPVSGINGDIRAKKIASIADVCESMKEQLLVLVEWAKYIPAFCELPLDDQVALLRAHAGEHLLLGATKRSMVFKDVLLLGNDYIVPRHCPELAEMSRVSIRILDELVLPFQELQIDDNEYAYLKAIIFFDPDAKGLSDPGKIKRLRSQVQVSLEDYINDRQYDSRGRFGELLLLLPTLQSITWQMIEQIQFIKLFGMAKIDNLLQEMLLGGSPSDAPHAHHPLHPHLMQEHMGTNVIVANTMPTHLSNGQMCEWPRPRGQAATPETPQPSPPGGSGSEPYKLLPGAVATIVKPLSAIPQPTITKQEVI
Beta2AR agonist: human beta-2 adrenergic receptor agonism by FAP | P07550 | Am2.2-beta2AR cells, FAP receptor internalization, flow cytometry; reference of the scale not given here | response, % (concentration not given with the values) | 340,000 compounds, 0.43% hits | AID 504454;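 active means response above a set limit, near 3 SD of response in nonfluorescent compounds, cut at about 42% in these data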;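 further: stock transfer was 100 nL into about 11 µL; a reference agonist was the positive control; negative values mostly stem from fluorescent compounds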
FGF22 binding: binders of recombinant human FGF22 by thermal shift. 340,000 compounds, 1.5% hits. calls only at 9.99 µM. SYPRO orange fluorescence; percent of sucrose octasulfate shift, DMSO zero;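 active means melting point raised past a set limit in the mean and every replicate; inconclusive means no clear call; three in four hits are not shown here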
Target sequence (Q9HCT0 whole entry, looked up): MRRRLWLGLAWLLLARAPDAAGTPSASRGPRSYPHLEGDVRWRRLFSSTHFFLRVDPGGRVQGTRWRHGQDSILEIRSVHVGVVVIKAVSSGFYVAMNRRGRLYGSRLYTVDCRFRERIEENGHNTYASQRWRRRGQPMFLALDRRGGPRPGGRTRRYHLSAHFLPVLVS
ALR inh: blocks human ALR sulfhydryl oxidase activity; P55789; purified ALR, DTT oxidation, H2O2 HRP-luminol luminescence; inhibition, % (concentration not given with the values); 290,000 compounds, 3.8% hits; AID 485317;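 active means mean and each replicate at 75% or more; inconclusive means only one of the two met; inactive means neither met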;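 further: stock transfer was 7.5 nL into about 7.5 µL; 0% = neutral wells and 100% = wells with inactivated enzyme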
Target sequence (P55789 whole entry, looked up): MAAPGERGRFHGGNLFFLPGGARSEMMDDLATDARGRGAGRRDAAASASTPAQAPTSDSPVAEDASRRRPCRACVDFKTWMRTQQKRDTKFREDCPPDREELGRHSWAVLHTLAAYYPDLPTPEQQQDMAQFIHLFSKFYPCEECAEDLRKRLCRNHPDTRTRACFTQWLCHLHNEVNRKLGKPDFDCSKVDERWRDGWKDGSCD
Ecoli rRNA inh OD600: also measured in Ecoli rRNA inh; calls as there; OD600 change, %; measured here: OD600 growth;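 optical density of the mix in the first replicate; 0 = DMSO median and -100 = no signal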
Ecoli rRNA inh RFP: also measured in Ecoli rRNA inh; calls as there; RFP signal change, %; measured here: RFP humanized mutant strains;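 first replicate; 0 = DMSO median and -100 = no signal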
Active calls of the source: *; i = inactive; ? = inconclusive; . = not tested or not shown; + = active, no number. The list is partial (hit frequency here may not be typical).

Below each compound – E coli growth, Ecoli rRNA inh, Ecoli rRNA inh OD600, Ecoli rRNA inh RFP, UCH37 DUB inh, HNF4A DNA FP, Beta2AR agonist, FGF22 binding, ALR inh
COC(=O)c1ccc(CN2CCC(CO)(CCOc3ccccc3)CC2)cc1
    0.69, 2, -8, 1.0, 2.8, 3.1, -3, i, .
Cc1ccc(S(=O)(=O)N2CCOCC2)cc1C(=O)OC(C)C(=O)NC1CCCC1 (configuration not stated)
    0.67, 5, 7, -1.7, 2.3, 1.6, -2, i, -1
O=C(NCC(c1cccs1)N1CCOCC1)c1ccccc1NS(=O)(=O)c1ccc(Br)cc1 (configuration not stated)
    0.64, ., ., ., -4.6, -0.6, -1, ., .
Cc1ccc(S(=O)(=O)Nc2ccc(NC(=O)Nc3ccc(F)cc3F)cc2)cc1
    0.72, ., ., ., 2.5, 4.3, 20, ., 23
COc1cc(OC)cc(C(=O)NCC2CCCN(C(=O)c3csc(C)n3)C2)c1 (configuration not stated)
    0.67, -1, 0, -0.4, 2.6, -0.7, -2, i, -3
Cn1c(-c2ccc3c(c2)OCO3)cnc1NCc1ccc(Cl)cc1
    0.66, ., ., ., 3.3, -3.9, 0, ., 18
CCOC(=O)c1c(C)c(C(=O)NCc2ccccn2)c(C)n1CC
    0.74, 8, 3, -0.5, -2.0, 5.4, -4, i, -5
CCN(CC)CCN1C(=O)C2C(C(=O)Nc3cccc(SC)c3)C3C=CC2(O3)C1C(=O)NC1CCCC(C)C1C (configuration not stated)
    0.66, 2, 10, 5.3, 0.2, -2.2, 7, i, -5
CN(C)CCCNc1nc(-c2ccc(Cl)cc2)nc2ccccc12
    0.62, 1, 8, -3.8, 3.0, -1.7, 15, i, 1
CCCCC1(COC(=O)CCC(=O)O)C(=O)N(c2ccccc2)N(c2ccccc2)C1=O
    0.65, -1, 2, -1.1, -0.4, -4.4, -9, i, -12
Cc1ccc(NS(=O)(=O)c2ccc(CCC(=O)NCCO)cc2)cc1
    0.67, ., ., ., 1.1, -0.9, 4, ., -8
COc1ccc(CN2C(=NC(=O)COc3ccccc3)SC3CS(=O)(=O)CC32)cc1 (configuration not stated)
    0.69, 7, 10, -0.9, 2.6, 0.7, 1, i, -2
Cc1c(C(=O)NCCC2=CCCCC2)cccc1[N+](=O)[O-]
    0.7, -18, -11, -0.7, -2.7, 2.8, 0, ., 0
COc1cc(/C=C2\C(=N)N3N=C(S(C)(=O)=O)SC3=NC2=O)cc(OC)c1OCCOc1ccc(C)cc1
    0.69, -3, -8, 5.4, 2.5, 2.5, 2, +, 57
Cc1ccc(S(=O)(=O)NC2(C(=O)O)CCCCC2)cc1
    0.68, 29, 24, -0.7, 1.4, -3.6, 3, ., -4
CCCCNC(=O)c1nc(-c2cccs2)oc1-c1ccc(Cl)cc1
    ., 12, 13, 1.6, ., -5.2, ., i, .
COC(=O)C1=C(C(=O)OC)C2(OC1c1ccc(Br)cc1)C(=O)c1ccccc1C2=O (configuration not stated)
    0.7, ., ., ., -12, 0.8, -1, ., .
COc1ccccc1C(=O)NC(CCSC)C(=O)NNC(=O)c1ccncc1 (configuration not stated)
    0.68, 4, 3, 0.7, 5.6, 0.0, -6, i, -2
CN(Cc1cccc(F)c1)C(=O)c1cccc(S(=O)(=O)N2CCN(Cc3ccccc3)CC2)c1
    0.7, -6, -28, -1.5, 1.8, 1.5, 1, i, -2
O=C1/C(=C\c2c(NCCOCCO)nc3ccccn3c2=O)SC(=S)N1Cc1ccco1
    ., 16, 12, 56, ., 103, -10, i, 11
Cc1cccc(N2CCN(C(=O)C(C)n3nc(C)n4c(cc5occc54)c3=O)CC2)c1C (configuration not stated)
    0.67, ., ., ., 2.8, 3.6, -19, ., -6
Oc1ccc(-c2nc3ccccc3nc2-c2ccc(O)cc2O)c(O)c1
    0.7, -8, -6, -3.3, 5.5, 3.8, -5, i, .
COC(=O)C1=C(C(=O)OC)[C@]2([C@@H]3CCCCN[C@@H](Cc4ccccc4)C(=O)N3Cc3ccccc3)C=C[C@H]1O2
    ., 3, 20, 17, 4.9, -4.5, 1, i, .
CCc1nc2ccccc2n1Cc1ccccc1F
    0.7, 0, 5, -1.2, 1.5, -5.5, 1, i, -24
CCOC(=O)C1CCCc2c1[nH]c1c(C(N)=O)cccc21 (configuration not stated)
    0.77, ., ., ., 53*, -0.9, 11, ., 0
CCN(CC)S(=O)(=O)c1cccc(C(=O)NC(C(=O)NC2=NCCS2)C(C)C)c1 (configuration not stated)
    0.74, ., ., ., -0.2, -1.4, 1, ., .
Nc1ccccc1Nc1ccc([N+](=O)[O-])cc1[N+](=O)[O-]
    0.66, -24*, -8.2*, -5.4*, 10, -3.3, -7, i, .
COc1ccc(C)c2sc(N(CCCN(C)C)C(=O)c3ccc(S(=O)(=O)N(C)C)cc3)nc12
    0.67, 4, 4, 3.2, 4.0, 2.1, 29, i, -12
CCc1ccc(N(C(=O)c2snc(C(N)=O)c2N)C(C(=O)NC2CCCC2)c2ccco2)cc1 (configuration not stated)
    0.69, 3, 0, -1.7, -18, 0.2, 8, i, 20
OCC1(CCOc2ccccc2)CCN(Cc2nc3ccc(F)cc3[nH]2)CC1
    0.68, -4, -2, 0.1, -3.3, 0.2, -5, i, -15

Full records, looked up by structure. Screens in order: E coli growth	Ecoli rRNA inh	Ecoli rRNA inh OD600	Ecoli rRNA inh RFP	UCH37 DUB inh	HNF4A DNA FP	Beta2AR agonist	FGF22 binding	ALR inh
COC(=O)C1=C(C(=O)OC)C2(OC1c1ccc(Br)cc1)C(=O)c1ccccc1C2=O (configuration not stated) as listed: 0.7	.	.	.	-12	0.8	-1	.	.
Cc1ccc(S(=O)(=O)N2CCOCC2)cc1C(=O)OC(C)C(=O)NC1CCCC1 (configuration not stated) as listed: 0.67	5	7	-1.7	2.3	1.6	-2	i	-1
O=C(NCC(c1cccs1)N1CCOCC1)c1ccccc1NS(=O)(=O)c1ccc(Br)cc1 (configuration not stated) as listed: 0.64	.	.	.	-4.6	-0.6	-1	.	.
Cc1c(C(=O)NCCC2=CCCCC2)cccc1[N+](=O)[O-] as listed: 0.7	-18	-11	-0.7	-2.7	2.8	0	.	0
Cc1ccc(NS(=O)(=O)c2ccc(CCC(=O)NCCO)cc2)cc1 as listed: 0.67	.	.	.	1.1	-0.9	4	.	-8

(list continues)
Below each compound – E coli growth, Ecoli rRNA inh, Ecoli rRNA inh OD600, Ecoli rRNA inh RFP, UCH37 DUB inh, HNF4A DNA FP, Beta2AR agonist, FGF22 binding, ALR inh
CC(C)CCn1nnnc1CN1CCN(C(=O)c2ccco2)CC1
    0.65, 4, 7, 3.1, 3.3, 1.0, -17, i, -1
CC(C)N1CCc2c(sc(N)c2C#N)C1
    0.67, 16, 6, 12, -30, 19, 3, i, -8
COc1ccccc1CNCC(=O)Nc1cc(S(=O)(=O)N2CCCCCC2)ccc1Cl
    0.7, -31*, -21*, -0.3*, 0.7, -3.8, 5, i, -8
COCCNC(=O)C(c1ccc(C)o1)N(Cc1ccc(F)cc1)C(=O)Cn1nnc2ccccc21 (configuration not stated)
    0.74, ., ., ., 3.6, -1.4, 0, ., -1
COc1ccc(NC(=O)CN2CCC(C)CC2)cc1
    0.73, ., ., ., 6.4, 4.8, 1, ., -2
Cc1c(CCCN)c2ccccc2n1Cc1ccccc1
    0.65, -5, -18, -4.1, 1.6, 3.4, 12, i, 49
COc1ccccc1C1NC(=O)CS1 (configuration not stated)
    0.78, ., ., ., 1.2, -2.8, 6, ., .
Cc1sc(NC(=O)CSc2nnc(COc3ccc(Cl)cc3)n2C)c(C#N)c1C
    0.69, ., ., ., 2.0, 6.1, -6, ., .
COc1ccc(S(N)(=O)=O)cc1C(=O)NCC(C)(C)N1CCCCC1
    0.68, 3, 5, 0.6, 0.0, 1.9, 3, i, 6
O=C(NCc1ccccc1)c1cc(C2COCCN2C(=O)C/C=C/c2ccccc2)on1 (configuration not stated)
    ., 2, -1, 2.5, ., 0.1, ., i, .
COCC(=O)N1CCCc2ccccc21
    0.71, ., ., ., 4.1, -3.3, -1, ., .
Cc1ccc2nc(-c3ccc(SCC(=O)N4CCc5ccccc54)nc3)[nH]c2c1
    0.67, -7, 18, 14, -9.4, 7.9, -7, i, -5
O=C(CCNC(=O)c1ccc([N+](=O)[O-])cc1)Nc1nc2ccccc2[nH]1
    0.7, 7, 12, -1.1, 2.0, 1.4, -6, i, .
COc1ccc(C(=O)NCCS(=O)(=O)N2CCCC2)cc1
    ., 7, 11, -0.2, ., 1.9, -6, i, -4
O=C(CN1C(=O)C(=O)N(C2CCCC2)C1=O)Nc1ccc(Cl)cc1C(F)(F)F
    0.65, 6, 12, -2.3, 1.6, 0.8, -1, i, 0
COc1ccc(CN(C)CC(=O)Nc2ccccc2C(F)(F)F)cc1
    0.66, -39, -62, -5.7, 0.5, 1.9, -3, i, 1
COc1cccc(NC(=O)CN(C)C(=O)c2ccccc2-c2nc3ccccc3s2)c1
    ., -18, -30, 1.9, ., 1.0, 1, i, -5
CCOc1cccc(C(=O)Nc2cccc(C(=O)NC(C)(C)C)c2)c1
    0.68, ., ., ., 1.9, 0.2, -10, ., -6
CCOc1cc2c3c(c1)C(C)CC(C)(C)N3C(=O)C2=O (configuration not stated)
    0.68, ., ., ., 2.3, -3.1, 0, ., .
COc1cccc(NS(=O)(=O)c2cc3c(cc2C)N(C(C)=O)CCO3)c1
    0.66, -4, -18, -2.2, -0.3, 6.4, 0, i, 9
Cn1cnnc1SCC(=O)Nc1cccc(S(=O)(=O)N2CCCCCC2)c1
    0.71, ., ., ., -0.2, 4.7, -8, ., .
Cc1ccc(S(=O)(=O)CCC(=O)OCc2nc(N)nc(Nc3ccccc3C)n2)cc1
    0.68, -1, 1, 1.9, -1.4, 1.2, -5, i, .
Cc1csc(NC(=O)CSc2nnc(-c3ccoc3C)o2)n1
    0.71, ., ., ., 3.9, 1.6, -1, ., ?
O=c1c2c(nc3cc(-c4ccc(Cl)cc4)[nH]n13)CCS2
    0.66, ., ., ., -28, -4.4, 4, ., .
Cc1ccc(NC(=O)c2ccc3snnc3c2)cc1
    0.73, 3, 12, 4.5, 5.2, -2.6, -5, i, -24
COc1cc(NC(=O)CSCc2ccc(Cl)cc2)c(C(=O)O)cc1OC
    0.64, -8, -7, -2.8, 4.1, 1.3, 1, i, .
CCOc1ccc(C(=O)Nc2c(C(=O)N3CCC(N4CCCCC4)CC3)oc3ccccc23)cc1
    ., 13, 16, 5.7, ., 1.8, -6, i, 1
CCN(c1ccccc1)S(=O)(=O)c1ccc(OCC(=O)N2CCCC2)cc1
    0.67, -6, 2, -0.1, -0.3, -0.9, -5, i, .
COc1cc(C(=O)OC2CCOC2=O)c([N+](=O)[O-])cc1OC (configuration not stated)
    0.71, 14, 24, 3.7, 8.5, 1.4, 11, i, -5
O=C(C1=C[C@@H](c2ccc(Br)cc2)C[C@@H](OCCCCO)O1)N1CCOCC1
    ., 3, 4, 4.7, 1.3, 2.5, -2, i, .
Cc1ccc(NC(=O)NC(=O)CN2C(=O)NC3(CCc4ccccc43)C2=O)c(C)c1 (configuration not stated)
    0.71, ., ., ., 3.0, 1.0, -3, ., 15
COc1cccc(CNC(=O)CCNC(=O)c2ccco2)c1
    0.63, 6, 6, 3.5, -1.3, -1.3, -3, i, -2

An excerpt from above, showing only E coli growth and UCH37 DUB inh.
| Structure | E coli growth | UCH37 DUB inh |
| --- | --- | --- |
| Cc1ccc(S(=O)(=O)N2CCOCC2)cc1C(=O)OC(C)C(=O)NC1CCCC1 (configuration not stated) | 0.67 | 2.3 |
| O=C(NCC(c1cccs1)N1CCOCC1)c1ccccc1NS(=O)(=O)c1ccc(Br)cc1 (configuration not stated) | 0.64 | -4.6 |
